Yeast UUG start = modulators of yeast start codon fidelity, primary screen, whole organism, S. cerevisiae, single point, plate reader; 350,000 tested, 0.13% active; activity score, % at 18.7 µM; S. cerevisiae UUG-firefly luciferase reporter, luminescence/redox ratio;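 active means replicate mean at a twofold rise or more, about +100% in these data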;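 further: firefly luciferase made from a UUG start codon reports start codon fidelity; reporter light over untreated wells divided by growth signal over untreated wells; some hits fall short of that in this replicate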
Env fusion inh = inhibitors of HIV-1 Env-driven cell-cell fusion, primary screen, HeLa-JRFL effector, CEM21 target cells, luciferase. inhibition, % at 12.3 µM. 360,000 tested, 1.1% active;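 active means mean replicate inhibition score of at least 50 and every replicate individually at or above 50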;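 further: 0% = plate neutral controls and 100% = maraviroc near 300 nM; one replicate is shown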
The depositor's hits bear a star; [ ] = dose if it differs, or a comment. An excerpt. The share of hits here may be higher or lower than overall.

Yeast UUG start	Env fusion inh	structure
6	-17[16.7 µM]	CC(=O)N(C)C[C@@H]1Oc2cc(-c3cccc(C#N)c3)ccc2S(=O)(=O)N([C@@H](C)CO)C[C@@H]1C
2	14[16.7 µM]	CNC(=O)C[C@H]1CC[C@H]2[C@@H](COc3ccc(NC(=O)Nc4ccccc4F)cc3C(=O)N2C)O1
0	15[16.7 µM]	CCNC(=O)Nc1ccc2c(c1)C(=O)N(C)[C@H]1CC[C@H](CC(=O)NCc3ccccc3F)O[C@H]1CO2
-9	-11[16.7 µM]	O=C(C[C@H]1C[C@H]2c3cc(NC(=O)C4CCOCC4)ccc3O[C@H]2[C@@H](CO)O1)NCC1CC1
-10	-21[16.7 µM]	O=C(CN1CCOCC1)N[C@H]1CC[C@@H](CCNC(=O)C2CCCCC2)O[C@H]1CO
3	-49[16.7 µM]	COc1ccc(NC(=O)N(C)C[C@@H]2Oc3c(NS(=O)(=O)c4c(C)noc4C)cccc3C(=O)N([C@H](C)CO)C[C@@H]2C)cc1
3	91*[16.7 µM]	CCCNC(=O)C[C@@H]1C[C@@H]2c3cc(NC(=O)Cc4ccncc4)ccc3O[C@@H]2[C@H](CO)O1
13	-76[16.7 µM]	COc1ccc(CN(C)C[C@H]2OCCCC[C@H](C)Oc3ccc(NS(=O)(=O)c4ccc(OC)cc4)cc3C(=O)N([C@H](C)CO)C[C@H]2C)cc1
-15	-8[16.7 µM]	C[C@@H]1CN([C@H](C)CO)C(=O)c2cc(C#Cc3ccc(F)cc3)cnc2O[C@@H]1CN(C)Cc1ccccn1
-4	15[16.7 µM]	COc1ccccc1C(=O)Nc1ccc2c(c1)C(=O)N(C)C[C@@H](OC)[C@@H](C)CN[C@H](C)CO2
-17	-19[16.7 µM]	COc1ccc(-c2ccc3c(c2)O[C@H](CN(C)Cc2ccccc2C(=O)O)[C@H](C)CN([C@H](C)CO)S3(=O)=O)cc1
2	9[16.7 µM]	CCC(=O)N(C)C[C@@H]1Oc2ncc(C#Cc3ccccc3)cc2C(=O)N([C@@H](C)CO)C[C@@H]1C
-1	-2[16.7 µM]	COCC(=O)Nc1ccc2c(c1)C(=O)N(C)C[C@@H](OC)[C@H](C)CN(C)[C@@H](C)CO2
0	-5[16.7 µM]	O=C(Nc1ccccc1F)N[C@H]1CC[C@H](CCNC(=O)C2CCC2)O[C@H]1CO
0	2[16.7 µM]	COCC(=O)N1C[C@@H](C)[C@@H](OC)CN(C)C(=O)c2ccc(NC(=O)c3ccc(F)cc3)cc2OC[C@H]1C
10	2[16.7 µM]	O=C(Nc1ccc2c(c1)[C@@H]1C[C@H](CC(=O)N3CCCCC3)O[C@H](CO)[C@@H]1O2)c1ccc2c(c1)OCO2
30	-5[16.7 µM]	C[C@H](CO)N1C[C@H](C)[C@@H](CN(C)C(=O)Nc2cccc3ccccc23)Oc2c(cccc2N(C)C)C1=O
-2	-13[16.7 µM]	COCC#Cc1cnc2c(c1)C(=O)N([C@@H](C)CO)C[C@H](C)[C@@H](CN(C)C(C)=O)O2
5	-19[16.7 µM]	CC(=O)N(C)C[C@H]1Oc2cc(Br)ccc2S(=O)(=O)N([C@@H](C)CO)C[C@@H]1C
3	3[16.7 µM]	C[C@@H]1CN([C@@H](C)CO)C(=O)c2cc(NC(=O)Cc3ccccc3)ccc2O[C@H]1CN(C)C(=O)Nc1ccc2c(c1)OCO2
13	-18[16.7 µM]	C/C=C/c1cnc2c(c1)C(=O)N([C@H](C)CO)C[C@@H](C)[C@H](CN(C)S(=O)(=O)c1ccc(F)cc1)O2
6	8[16.7 µM]	Cc1ccc(S(=O)(=O)N(C)C[C@@H]2OCCCC[C@H](C)Oc3ccc(NC(=O)Nc4c(C)noc4C)cc3C(=O)N([C@@H](C)CO)C[C@H]2C)cc1
-3	-4[16.7 µM]	C[C@H](CO)N1C[C@H](C)[C@@H](CN(C)S(=O)(=O)c2cn(C)cn2)Oc2ccc(NC(=O)CCCN(C)C)cc2C1=O
-4	-239	CCOc1ccc(Cl)cc1-c1cc(C(=O)Nc2ccc(F)cc2)[nH]n1
3	-98[16.7 µM]	C[C@@H]1CN([C@H](C)CO)C(=O)c2cccc(NC(=O)c3ccc(-c4nccs4)cc3)c2O[C@@H]1CN(C)C(=O)Nc1ccccc1
4	-3[16.7 µM]	C[C@@H]1CCCCO[C@H](CN(C)Cc2ccc(C(=O)O)cc2)[C@H](C)CN([C@@H](C)CO)C(=O)c2cc(NC(=O)c3ccccc3)ccc2O1
14	-1[16.7 µM]	CC(C)C#Cc1ccc2c(c1)O[C@@H](CN(C)C(=O)Cc1ccccn1)[C@@H](C)CN([C@@H](C)CO)S2(=O)=O
-7	3[16.7 µM]	CCCC(O)C#Cc1cnc2c(c1)C(=O)N([C@H](C)CO)C[C@H](C)[C@H](CN(C)S(=O)(=O)c1ccccc1)O2 (stereo partly drawn)
9	-18[16.7 µM]	COCC(=O)N(C)C[C@@H]1Oc2cc(C#C[C@H](C)O)ccc2S(=O)(=O)N([C@@H](C)CO)C[C@H]1C
0	-6[16.7 µM]	C[C@@H]1CN([C@@H](C)CO)S(=O)(=O)c2ccc(C3=CCCC3)cc2O[C@H]1CN(C)Cc1cccnc1
-16	1[16.7 µM]	C[C@H](O)C#Cc1ccc2c(c1)O[C@H](CN(C)CC1CC1)[C@H](C)CN([C@H](C)CO)S2(=O)=O
26	-22[16.7 µM]	C[C@@H]1CCCCO[C@H](CN(C)C(=O)Nc2ccc(F)cc2)[C@H](C)CN([C@H](C)CO)C(=O)c2cc(NS(C)(=O)=O)ccc2O1
39	-15[16.7 µM]	CC(C)C#Cc1cnc2c(c1)C(=O)N([C@H](C)CO)C[C@H](C)[C@H](CN(C)C(=O)Nc1cccc(F)c1)O2
-13	7[16.7 µM]	CN1CCN(C(=O)C[C@@H]2CC[C@@H]3[C@@H](COc4ccc(NC(=O)C5CC5)cc4C(=O)N3C)O2)CC1
-11	-17[16.7 µM]	Cc1ccccc1-c1cnc2c(c1)C(=O)N([C@H](C)CO)C[C@@H](C)[C@@H](CN(C)Cc1ccncc1)O2
10	0[16.7 µM]	CC(=O)N(C)C[C@H]1Oc2cc(C#Cc3ccccc3)ccc2S(=O)(=O)N([C@@H](C)CO)C[C@@H]1C
17	4[16.7 µM]	C[C@@H]1CN([C@H](C)CO)C(=O)Cc2cc(NC(=O)Cc3cn(C)c4ccccc34)ccc2O[C@@H]1CN(C)C(=O)Nc1cccc2ccccc12
0	-6[16.7 µM]	Cc1ccc(-c2ccc3c(c2)O[C@@H](CN(C)C(=O)C2CCC2)[C@H](C)CN([C@H](C)CO)S3(=O)=O)cc1
8	10[16.7 µM]	C[C@@H]1CN([C@@H](C)CO)C(=O)CCCn2cc(nn2)CO[C@H]1CN(C)C(=O)Nc1cccc(F)c1
19	14[16.7 µM]	Cc1noc(C)c1NC(=O)Nc1ccc2c(c1)C(=O)N([C@@H](C)CO)C[C@@H](C)[C@H](CN(C)C(=O)C1CCCCC1)OCCCC[C@H](C)O2
-20	65*[16.7 µM]	COCCNC(=O)C[C@@H]1C[C@H]2c3cc(N(C)C)ccc3O[C@H]2[C@@H](CO)O1
-6	3[16.7 µM]	C[C@@H]1CN([C@H](C)CO)C(=O)c2cc(NC(=O)Cn3cnnn3)ccc2O[C@@H]1CN(C)S(=O)(=O)c1ccc(F)cc1
16	-2[16.7 µM]	C[C@@H]1CN([C@@H](C)CO)S(=O)(=O)c2ccc(C#Cc3cccc(F)c3)cc2O[C@@H]1CN(C)C(=O)CN1CCOCC1
0	-10[16.7 µM]	C[C@H](CO)N1C[C@H](C)[C@@H](CN(C)Cc2ccc3c(c2)OCO3)OCCCC[C@H](C)Oc2ccc(NS(=O)(=O)c3ccccc3)cc2C1=O
-1	15[16.7 µM]	Cc1noc(C)c1NC(=O)Nc1ccc2c(c1)C(=O)N([C@H](C)CO)C[C@H](C)[C@H](CN(C)C(=O)Nc1ccc3c(c1)OCO3)OCCCC[C@@H](C)O2
14	1[16.7 µM]	N#C[C@H]1[C@H](c2ccc(-c3cccnc3)cc2)[C@H](CO)N1C(=O)C1CCC1
11	21[16.7 µM]	COCC(=O)N(C)C[C@@H]1Oc2cc(C#Cc3ccccc3)ccc2S(=O)(=O)N([C@H](C)CO)C[C@@H]1C
9	-11[16.7 µM]	C[C@@H]1CN([C@@H](C)CO)C(=O)c2cccc(NC(=O)Nc3ccc4c(c3)OCO4)c2O[C@H]1CN(C)Cc1ccc(C(F)(F)F)cc1
-13	-17[16.7 µM]	C[C@H](CO)N1C[C@H](C)[C@H](CN(C)Cc2ccncc2)Oc2ncc(C#Cc3ccccn3)cc2C1=O
4	-5[16.7 µM]	O=C(C[C@@H]1C=C[C@@H](NC(=O)CC2CC2)[C@H](CO)O1)NCc1ccc(-c2ccccc2)cc1
12	-21[16.7 µM]	COc1ccc(CN(C)C[C@@H]2OCCCC[C@H](C)Oc3ccc(NS(=O)(=O)c4cccs4)cc3C(=O)N([C@H](C)CO)C[C@H]2C)cc1
-7	56*[16.7 µM]	C[C@@H]1CN([C@@H](C)CO)C(=O)c2cc(C#Cc3ccccc3F)cnc2O[C@@H]1CN(C)S(=O)(=O)c1ccccc1F
7	-4[16.7 µM]	CCCNC(=O)Nc1ccc2c(c1)OC[C@H](C)NC[C@@H](C)[C@@H](OC)CN(C)C2=O
-13	12[16.7 µM]	C[C@H](O)C#Cc1ccc2c(c1)O[C@@H](CN(C)C(=O)c1ccncc1)[C@@H](C)CN([C@@H](C)CO)S2(=O)=O
-5	5[16.7 µM]	O=C(Cc1ccccn1)NCC[C@H]1CC[C@@H](NC(=O)CN2CCOCC2)[C@@H](CO)O1
-5	-11[16.7 µM]	COc1ccccc1S(=O)(=O)N[C@@H]1CC[C@@H](CCNC(=O)C2CC2)O[C@H]1CO
17	-7[16.7 µM]	C[C@H]1CCCCO[C@@H](CN(C)C(=O)c2ccccc2)[C@@H](C)CN([C@@H](C)CO)C(=O)c2cc(NC(=O)C3CCCCC3)ccc2O1
3	-6[16.7 µM]	C[C@@H]1CN([C@H](C)CO)C(=O)Cc2cc(NC(=O)Nc3ccc(F)cc3)ccc2O[C@H]1CN(C)C(=O)Nc1ccc(C(F)(F)F)cc1
1	4[16.7 µM]	O=C(C[C@H]1C=C[C@H](NC(=O)c2cccc(F)c2)[C@H](CO)O1)NCc1ccccc1
-11	-59[16.7 µM]	C[C@H](CO)N1C[C@H](C)[C@@H](CN(C)S(=O)(=O)c2ccccc2F)Oc2cc(C#Cc3ccccc3)ccc2S1(=O)=O

Later entries.
Yeast UUG start	Env fusion inh	structure
2	-29[16.7 µM]	Cc1ccc(S(=O)(=O)N(C)C[C@@H]2Oc3c(NC(=O)C4CCOCC4)cccc3C(=O)N([C@H](C)CO)C[C@@H]2C)cc1
-6	9[16.7 µM]	O=C(NCC[C@H]1CC[C@@H](NS(=O)(=O)c2ccccc2)[C@H](CO)O1)c1ccccc1F
8	-6[16.7 µM]	C[C@H]1CN([C@@H](C)CO)C(=O)c2cc(-c3cccnc3)cnc2O[C@@H]1CN(C)C(=O)Nc1ccc(F)cc1
1	-15[16.7 µM]	C[C@@H]1CCCCO[C@@H](CN(C)Cc2ccc(Cl)c(Cl)c2)[C@H](C)CN([C@H](C)CO)C(=O)c2cc(NS(C)(=O)=O)ccc2O1
-7	-1[16.7 µM]	COc1ccc(NC(=O)N(C)C[C@H]2OCCCC[C@@H](C)Oc3ccc(NC(=O)Nc4ccc(F)cc4)cc3C(=O)N([C@H](C)CO)C[C@@H]2C)cc1
15	17[16.7 µM]	C[C@@H]1CN([C@H](C)CO)S(=O)(=O)c2ccc(-c3ccccc3)cc2O[C@@H]1CN(C)CC1CC1
4	-5[16.7 µM]	C[C@H](CO)N1C[C@H](C)[C@H](CN(C)CC2CCCCC2)Oc2ccc(NC(=O)C3CCCCC3)cc2CC1=O
-2	-29[16.7 µM]	C[C@@H]1CN([C@@H](C)CO)C(=O)c2cc(-c3cccc(C(=O)N(C)C)c3)cnc2O[C@H]1CN(C)C

Arranged by molecular weight (high to low): some entries from above.
Yeast UUG start	Env fusion inh	structure
-7	-1[16.7 µM]	COc1ccc(NC(=O)N(C)C[C@H]2OCCCC[C@@H](C)Oc3ccc(NC(=O)Nc4ccc(F)cc4)cc3C(=O)N([C@H](C)CO)C[C@@H]2C)cc1
3	-6[16.7 µM]	C[C@@H]1CN([C@H](C)CO)C(=O)Cc2cc(NC(=O)Nc3ccc(F)cc3)ccc2O[C@H]1CN(C)C(=O)Nc1ccc(C(F)(F)F)cc1
1	-15[16.7 µM]	C[C@@H]1CCCCO[C@@H](CN(C)Cc2ccc(Cl)c(Cl)c2)[C@H](C)CN([C@H](C)CO)C(=O)c2cc(NS(C)(=O)=O)ccc2O1
2	-29[16.7 µM]	Cc1ccc(S(=O)(=O)N(C)C[C@@H]2Oc3c(NC(=O)C4CCOCC4)cccc3C(=O)N([C@H](C)CO)C[C@@H]2C)cc1
8	-6[16.7 µM]	C[C@H]1CN([C@@H](C)CO)C(=O)c2cc(-c3cccnc3)cnc2O[C@@H]1CN(C)C(=O)Nc1ccc(F)cc1
15	17[16.7 µM]	C[C@@H]1CN([C@H](C)CO)S(=O)(=O)c2ccc(-c3ccccc3)cc2O[C@@H]1CN(C)CC1CC1
-2	-29[16.7 µM]	C[C@@H]1CN([C@@H](C)CO)C(=O)c2cc(-c3cccc(C(=O)N(C)C)c3)cnc2O[C@H]1CN(C)C
-6	9[16.7 µM]	O=C(NCC[C@H]1CC[C@@H](NS(=O)(=O)c2ccccc2)[C@H](CO)O1)c1ccccc1F
1	4[16.7 µM]	O=C(C[C@H]1C=C[C@H](NC(=O)c2cccc(F)c2)[C@H](CO)O1)NCc1ccccc1

Screening results: PubChem BioAssay, Broad Institute
